SARS PLP yeast – SARS-CoV PLP inhibition in yeast; 330,000 tested, 0.19% active; S. cerevisiae expressing SARS-CoV PLpro, growth rescue; control for the full effect not named in the record; Potency, µM (highest dose often 32.9 µM), inactives show top-dose activity, positive = growth rescue; active means well fitted rising curve with a large enough effect; inconclusive means small, poorly fitted or top-dose-only effect; inactive means no such curve, though single readings can be large or run the other way; further: 0% is about no effect; nearly all actives have a fitted effect of over 55% in size; growth read by luminescence after 48 h
MARV entry inh – blocks Marburg virus binding to or entry into cells; 300,000 tested, 1.8% active; Marburg virus pseudotyped entry inhibition, cell reporter; control for the full effect not named in the record; about a third of the inactives were read at about 46 µM; Potency, µM (doses to about 37.8 µM), inactives show top-dose activity change, negative = inhibition, hits mostly inhibitors; AID 540276; active = well fitted inhibition curve with a large enough effect; inconclusive = small, poorly fitted or top-dose-only effect, or effect the other way; inactive = flat fitted curve, though single readings scatter; tested in HEK293 cells; about a fifth of its hits are not listed in these tables; further: on the % scale 0 is the no-effect control and ±100 the full control effect; luciferase read-out
RE007 growth inh – less growth of the S. pombe RE007 Vpr strain; Potency, µM (doses to about 92.2 µM), inactives show top-dose activity change, negative = less growth; S. pombe RE007 Vpr strain, BacTiter-Glo ATP luminescence, 24 h; control for the full effect not named in the record; 360,000 tested, 0.21% active; AID 651644; active = well fitted falling curve with a large enough effect; inconclusive = small, poorly fitted or top-dose-only effect; inactive = no such curve, though single readings can be large or run the other way;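 further: on the % scale 0 is the no-effect control and ±100 the full control effect; nearly all actives have a fitted effect of over 50% in size; the assay follows cell death caused by Vpr and the record does not say whether a fall means rescue or toxicity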
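Fission yeast RE007 carrying one integrated HIV-1 vpr copy, seeded at OD 0.01 in PMG+AL medium with 23 nL pinned compound. Grown 24 h at 30 degrees; viability read by BacTiter-Glo luminescence after 5 min.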
StopGo reporter – FMDV 2A StopGo reporter, luciferase signal; AID 1159524; Potency, µM (top dose mostly 57.9 µM), without a hit: top-dose signal change, negative = less light; human cells with a luciferase reporter of 2A StopGo recoding; control for the full effect not named in the record; 410,000 tested, 1.2% active; active = well fitted falling curve with a large enough effect; inconclusive = small, poorly fitted or top-dose-only effect; inactive = no such curve, though single readings can be large or run the other way; tested in HEK293T cells; further: on the % scale 0 is the no-effect control and ±100 the full control effect; nearly all actives have a fitted effect of over 45% in size; luciferase light after 4 h
LASV entry inh – Lassa virus entry inhibition | Lassa virus pseudotype entry inhibition, cell reporter; control for the full effect not named in the record | Potency, µM (top dose mostly 37.9 µM), without a hit: at the top dose activity change, negative = inhibition, actives largely listed as inhibitors | 300,000 tested, 1.2% active | AID 540256; active means well fitted inhibition curve with a large enough effect; inconclusive means small, poorly fitted or top-dose-only effect, or effect the other way; inactive means flat fitted curve, though single readings scatter; tested in HEK293 cells; further: on the % scale 0 is the no-effect control and ±100 the full control effect; nearly all actives have a fitted effect of over 50% in size; luciferase read-out
* marks the source's active call; other numbers are inactive results; u = inconclusive; x = no result given; [ ] = dose if it differs, or a comment. Potency means the concentration at half of the fitted maximal effect. Only part of the results is shown. The share of hits here may be higher or lower than overall.

SMILES	SARS PLP yeast	MARV entry inh	RE007 growth inh	StopGo reporter	LASV entry inh
Cc1ccc(O)c(-c2ccnc3cc(-c4ccc(Cl)cc4)nn23)c1	x	0%[46.1 µM]	x	-6%	2%[46.1 µM]
Nc1cc(=O)nc(SCC(=O)Nc2ccc(F)cc2)n1CCc1ccccc1	x	-3%[46.1 µM]	x	-11%	1%[46.1 µM]
COc1ccc(NC(=O)c2coc(=O)c3ccccc23)cc1OC	x	15%[46.1 µM]	x	0%	3%[46.1 µM]
CCOC(=O)c1cnc2c(OC)cccc2c1N1CCN(c2ccccc2F)CC1	x	u	x	u	u
O=C1COc2ccc(-c3cc(-c4ccc(F)cc4)c4c(n3)-c3ccccc3OC4)cc2N1	x	u	x	3%	11%[46.1 µM]
CCOc1ccc(NC(=O)CSc2cn(CCNC(=O)c3ccccc3F)c3ccccc23)cc1	x	-29%[46.1 µM]	x	-27%	u
CCOc1ccccc1C1N=C(N)Nc2nc3ccccc3n21 (stereo not drawn)	x	0%[46.1 µM]	x	-12%	-19%[46.1 µM]
COC(=O)CC1Oc2ccc(C)cc2-n2cc(-c3ccc(C)cc3)nc21 (stereo not drawn)	x	6%[46.1 µM]	x	-16%	u
CCOC(=O)c1c(NC(=O)CSc2cn(CCNC(=O)c3ccccc3F)c3ccccc23)sc2c1CCCC2	x	3%[46.1 µM]	x	-8%	14%[46.1 µM]
Fc1ccc2c(c1)-c1c(cnc3cc(-c4ccc(Cl)cc4)nn13)CO2	x	20%[46.1 µM]	x	83%[activator]	13%[46.1 µM]
CCc1nn2c(-c3ccccc3OC)ccnc2c1-c1ccc(F)cc1	x	-8%[46.1 µM]	x	u	2%[46.1 µM]
Cc1[nH]n2c(=O)cc(-c3ccccc3Cl)nc2c1-c1ccccc1	x	-25%[46.1 µM]	x	-23%	u
COc1ccc(CCNC(=O)CSc2cn(CCNC(=O)c3ccccc3F)c3ccccc23)cc1OC	x	u	x	u	-10%[46.1 µM]
CCc1ccc(O)c(C(=O)c2cnc3cc(-c4ccc(C)cc4)nn3c2)c1	x	10%[46.1 µM]	x	-3%	u
COc1cc(NC(=O)CN2CCCN(S(=O)(=O)c3ccc(F)cc3)CC2)cc(OC)c1	x	0%[46.1 µM]	x	-6%	-2%[46.1 µM]
Cc1ccc2c(c1)-c1nc(-c3ccccc3)cc(-c3ccccc3)c1CO2	x	u	x	-12%	7%[46.1 µM]
Cc1ccc(-c2cc3ncc(C(=O)c4cc(Cl)c(C)cc4O)cn3n2)cc1	x	u	x	-15%	7%[46.1 µM]
O=C(NCCn1cc(SCc2ccc(C(F)(F)F)cc2)c2ccccc21)c1cccs1	x	u	x	u	-15%[46.1 µM]
O=C(Nc1cccc(Cl)c1Cl)c1cc2nc(-c3ccc(Cl)cc3)cc(C(F)(F)F)n2n1	x	21%[46.1 µM]	x	-9%	15%[46.1 µM]
Cc1ccc2occ(-c3cc(-c4ccc(F)cc4)nc4c3COc3ccc(F)cc3-4)c(=O)c2c1	x	u	x	-16%	0%[46.1 µM]
CCOc1ccc(S(=O)(=O)Nc2ccc(OC)c(Cl)c2)c2cccnc12	x	-11%[46.1 µM]	x	61%[activator]	-2%[46.1 µM]
CCOC(=O)c1c(NC(=O)CSc2cn(CCNC(=O)c3ccc(OCC)cc3)c3ccccc23)sc2c1CCC2	x	u	x	-21%	5%[46.1 µM]
COc1ccc(CCNC(=O)CSc2cn(CCNC(=O)c3cccc(C(F)(F)F)c3)c3ccccc23)cc1OC	x	u	x	22µM*	u
O=C(Nc1ccc(Cl)c(C(F)(F)F)c1)c1cc2nc(-c3ccc4c(c3)OCO4)cc(C(F)(F)F)n2n1	x	-6%[46.1 µM]	x	u	30%[46.1 µM]
COc1cccc(NC(=O)CN2CCCN(S(=O)(=O)c3ccc(Br)cc3)CC2)c1	x	-3%[46.1 µM]	x	u	-9%[46.1 µM]
Cc1ccc2c(c1)-c1c(cnc3cc(-c4ccc(F)cc4)nn13)CO2	x	1%[46.1 µM]	x	-7%	22%[46.1 µM]
CCOC(=O)c1nnc2c(-c3ccc(F)cc3)c(C)nn2c1N	x	13%[46.1 µM]	x	-11%	13%[46.1 µM]
COc1ccc(C(=O)NCCn2cc(SCC(=O)Nc3ccc4c(c3)OCCO4)c3ccccc32)cc1	x	u	x	-12%	u
CCOC(=O)c1c(NC(=O)CSc2cn(CCNC(=O)c3ccc(OC)c(OC)c3)c3ccccc23)sc2c1CCCC2	x	u	x	0%	-12%[46.1 µM]
COc1ccc(C(=O)NCCn2cc(SCc3cccc(F)c3)c3ccccc32)cc1OC	x	u	x	18µM*	u
COC(=O)C1=C(c2c(C)noc2C)C[C@@H]2CC[C@H]1N2C(=O)NCCOc1ccc(OC)cc1	-9%	x	6%	-5%	x
COc1ccccc1-c1sc2cc3c(cc2c1C#CC1(O)CCCCC1)OCO3	-1%	x	7%	-4%	x
CCC1CCCCN1CC(=O)Nc1ccc2c(c1)OCCO2 (stereo not drawn)	-9%	x	-2%	22%	x
Cc1nn(CC(=O)OCC(=O)NCCc2ccc(S(N)(=O)=O)cc2)c(C)c1[N+](=O)[O-]	3%	x	-7%	-12%	x
O=C(O)c1ccccc1NS(=O)(=O)c1ccc(NN=Cc2ccccc2F)c([N+](=O)[O-])c1	-46%	x	5%	0%	x
CCOc1ccc(NC(=O)CN(C)C(=O)C2CCCC2)cc1OCC	0%	x	11%	-19%	x
CN(Cc1cccc(F)c1)C(=O)C1CC(=O)N(c2ccc3c(c2)OCCO3)C1 (stereo not drawn)	-1%	x	-3%	-5%	x
Cc1cccc(/C(N)=N/OC(=O)COc2ccc(Cl)cc2)c1	-5%	x	-10%	9%	x
COC(=O)[C@H](Cc1ccccc1)NC(=O)Cn1cnc2c(OCc3ccccc3)ncnc21	3%	x	-17%	-15%	x
COc1ccc2c(C)cc(SCC(=O)NC3CCCC3)nc2c1	-2%	x	-2%	u	x
O=C(COC(=O)Cc1c(F)cccc1Cl)NNC(=O)c1ccccc1	7%	x	-3%	-16%	x
CCN(C[C@H]1N[C@@](C)(C(=O)OC)[C@H]2C(=O)N(Cc3ccccc3)C(=O)[C@@H]12)S(=O)(=O)c1ccccc1	-4%	x	6%	-20%	x
O=C(COC(=O)c1cc(-c2ccc(F)cc2)nc2ccccc12)NCC1CCCO1 (stereo not drawn)	-3%	x	-9%	-19%	x
Nc1nnc(SCC(=O)NNC(=O)c2ccc([N+](=O)[O-])cc2)s1	-2%	x	-12%	-10%	x
COCCn1c(SCC(=O)NC(=O)NC2CCCC2)nc2ccccc2c1=O	-1%	x	5%	u	x
C#CCOCCOCCOCCNc1nc(N2CCOCC2)nc(N2CCN(C(=O)CCCCCCCCCCNC(=O)[C@H](CO)n3cc(CCCSC)nn3)CC2)n1	3%	x	3%	-44%	x
CCN(Cc1nc2cc(Cl)ccc2c(=O)[nH]1)C(=O)c1cccc(OCc2c(C)noc2C)c1	-2%	x	6%	u	x
CC(=O)c1ccc(S(=O)(=O)NCCCC(=O)N(C)Cc2ccc3c(c2)OCO3)cc1	-2%	x	13%	-7%	x
CCn1c(C(=O)O)c(CC(=O)Nc2ccccc2F)c2ccccc21	-1%	x	-3%	17%	x
Cc1ccc(C(=O)O)cc1NC(=O)CSc1nnc(-c2ccccc2F)n1C1CCCCC1	-5%	x	-7%	-12%	x
CN1C(C(=O)NCc2ccco2)CC2Cn3c(nc4ccccc43)C21 (stereo not drawn)	-3%	x	8%	2%	x
Cc1ccc(NC(=S)N/N=C2\CC3CC=CC23)c(C)c1 (stereo not drawn)	2%	x	1%	12%	x
Cc1ccc(-c2nc(SCC(=O)c3c(N)n(C4CC4)c(=O)[nH]c3=O)n[nH]2)cc1	7%	x	0%	-6%	x
O=C(COC(=O)C12CC3CC(CC(Cl)(C3)C1)C2)Nc1ccc2[nH]c(=O)[nH]c2c1	-7%	x	14%	-27%	x
COc1ccc(NC(C)=O)cc1NC(=O)c1ccc(Cl)cc1	0%	x	-16%	7%	x
COc1cc(OC)cc(C(=O)OC(C)C(=O)NC2CCCc3ccccc32)c1 (stereo not drawn)	0%	x	2%	-8%	x
COc1ccccc1NS(=O)(=O)c1ccc(C(=O)NCCCn2ccnc2)cc1	1%	x	2%	-14%	x
Cc1cc(C(=O)Nc2cccc(S(=O)(=O)N3CCOCC3)c2)c2ccccc2n1	0%	x	-14%	-27%	x
O=C(Cn1cnc2c(OCc3ccccc3)ncnc21)NCCCn1ccnc1	4%	x	0%	-8%	x
C=CC[C@@H](CC(=O)N[C@H](CO)Cc1ccccc1)C(=O)NCCOC(=O)[C@@H](CC=C)CC(=O)OC(C)(C)C	-17%	x	1%	-26%	x
(next part)
SMILES	SARS PLP yeast	MARV entry inh	RE007 growth inh	StopGo reporter	LASV entry inh
CC(=O)Nc1ccc(NC(=O)C2CCC(CNS(=O)(=O)c3cccc4nsnc34)CC2)cc1 (stereo not drawn)	0%	x	12%	7%	x
C[C@H](NC(=O)c1nc[nH]c1C(=O)OCc1ccccc1)c1ccccc1	8%	x	8%	-21%	x
CC(=O)c1ccc(NC(=O)C2C3C=CC(C3=C(c3ccccc3)c3ccccc3)C2C(=O)O)cc1 (stereo not drawn)	-4%	x	10%	-5%	x
COCCNC(=O)C(c1cccnc1)N(Cc1ccccc1)C(=O)Cn1nnc2ccccc21 (stereo not drawn)	1%	x	11%	44%[activator]	x
Cc1[nH]c2ccc(F)cc2c1CCN(Cc1cccnc1)C(=S)Nc1ccc(F)cc1	-1%	x	13%	-5%	x
CCOC(=O)[C@H]1[C@H]2COc3ccc(OC)cc3[C@@H]2N2C(=O)CN(Cc3ccco3)C(=O)[C@@]12C	-6%	x	4%	-11%	x
COC(=O)C1=C(c2ccc(OCc3ccccc3)cc2)C[C@@H]2CC[C@H]1N2C(=O)NCc1cccc(C(F)(F)F)c1	5%	x	2%	-8%	x
CC(C)(C)OC(=O)C[C@@H]1C/C=C\C[C@H](CC(=O)NCCO)C(=O)NC[C@@H](c2ccccc2)OC1=O	2%	x	16%	-10%	x
O=C(CSc1nnc(Nc2ccccc2F)s1)NC(=O)CN1CCCC1=O	-1%	x	-6%	20%	x
COc1ccccc1C1=NOC(C)(c2nnc(Cc3ccccc3)o2)C1 (stereo not drawn)	0%	x	-7%	-1%	x
O=C(COC(=O)c1ccc2c(c1)OCO2)Nc1cccc(F)c1	-3%	x	3%	-3%	x
O=C(CN1C(=O)NC(Cc2c[nH]c3ccccc23)C1=O)Nc1ccccc1C(F)(F)F (stereo not drawn)	-2%	x	1%	-13%	x
NC(=S)n1[nH]c(-c2ccc([N+](=O)[O-])cc2)c(N=Nc2ccccc2[N+](=O)[O-])c1=O	2%	x	4%	-15%	x
O=S(=O)(Nc1cc(S(=O)(=O)N2CCOCC2)ccc1NCC1CCCO1)c1ccccc1F (stereo not drawn)	-1%	x	-16%	49%[activator]	x
CN(C(=O)CSc1nnc(-c2ccc(C(C)(C)C)cc2)n1C)C1CCS(=O)(=O)C1 (stereo not drawn)	0%	x	-4%	-3%	x

High-throughput results deposited in PubChem BioAssay by National Center for Advancing Translational Sciences (NCATS).
